StopGo RLuc – lowers the Renilla signal of an FMDV 2A StopGo reporter | HEK cells with a luciferase reporter of 2A StopGo recoding | Potency, µM (top dose mostly 57.5 µM), inactives show at the top dose signal change, negative = less light | AID 1745857 | actives 0.32% (n = 120,000); active means well fitted falling curve with a large enough effect; inconclusive means small, poorly fitted or top-dose-only effect; inactive means no such curve, though single readings can be large or run the other way; further: nearly all actives have a fitted effect of over 55% in size; overnight with compound
2A firefly – FMDV 2A StopGo reporter, firefly signal; HEK cells with a luciferase reporter of 2A StopGo recoding; Potency, µM (top dose mostly 57.5 µM), inactives show top-dose signal change, negative = less light; actives 0.23% (n = 120,000); AID 1745856; active = well fitted falling curve with a large enough effect; inconclusive = small, poorly fitted or top-dose-only effect; inactive = no such curve, though single readings can be large or run the other way; further: nearly all actives have a fitted effect of over 60% in size; overnight with compound
An asterisk follows results filed as active; ? = inconclusive; & = joins results of further samples; [ ] = another dose, or the depositor's remark. On the % scale 0 is the no-effect control and ±100 the full control effect; potency means the concentration at half of the fitted maximal effect. Some of the compounds tested; count on the stated rates, not on these rows.

molecule | 2A firefly | StopGo RLuc
CCCCNc1nc2c(c(=O)[nH]c(=O)n2C)n1Cc1cccc(C)c1 | 24% | 39%[activator]
O=C(CCCCn1c(=O)c2ccccc2n(CC(=O)Nc2ccccc2)c1=O)NCc1ccccc1Cl | -11% | -14%
Cc1cccc(-c2nc(SCCCOc3ccccc3Cl)n3[nH]c(=O)cc3n2)c1 | -2% | -11%
Cc1cccn2c(=O)c3cc(C#N)c(=O)n(-c4nnc(SCc5ccc(Cl)cc5)s4)c3nc12 | 43%[activator] | 39%[activator]
CCc1c(C)sc(NC(=O)C2c3ccccc3Oc3ccccc32)c1C(=O)OC(C)C | -19% | -10%
COc1ccc(NC(=O)CCc2c(C)nc3c(c2C)c(=O)n(C)c(=O)n3C)c(OC)c1 | -16% | -7%
Cc1ccccc1C(=O)Nc1cccc(OCc2cc(=O)n3cccc(C)c3n2)c1 | -22% | -9%
S=C(NCCSc1ccc(Cl)cc1)NCCc1ccccc1 | 33%[activator] | 80%[activator]
Nc1nccnc1C(=O)NCc1ccc(N2CCc3ccccc3C2)nc1 | 0% | -7%
CCCCCCCCCCCCCCCC[n+]1ccccc1 | 1%[11.5 µM] | ?
Cc1ccc(-c2n[nH]c(-c3ccc(C)c(C)c3)c2C)cc1C | 6% | -6%
Cc1nc2ccn(Cc3cccs3)c(=O)c2cc1C(=O)N1CCN(c2ccccc2F)CC1 | -17% | -5%
CSc1ccccc1NC(=O)C(c1ccccc1)c1ccccc1 | -2% | 11%
CC1CCN(C(=O)Cn2cc(SCc3ccc(C(F)(F)F)cc3)c3ccccc32)CC1 | 0% | ?
Cc1sc(NC(=O)CC(C)(C)CC(=O)O)c(C(N)=O)c1-c1ccccc1 | 114%[activator] | 0%
CCc1ccc(C2=NN(CCC(=O)NCCc3ccc(OC)c(OC)c3)C(=O)CC2)cc1 | -8% | -3%
CC(C)c1nnc(N2C(=O)c3oc4ccccc4c(=O)c3C2c2cccc(O)c2)s1 (stereo not given) | -8% | 2%
Cc1cc(CNC(=O)C2CCCN2C(=O)OC(C)(C)C)ccc1F (stereo not given) | 9% | 5%
CCc1ccc(C2C=C(c3ccc(OC)cc3)Nc3nnnn32)cc1 (stereo not given) | 10% | 19%
COc1ccc(NS(=O)(=O)c2ccc(N)cc2)nn1 | -15% | 28%
Fc1ccccc1-c1nnc(SCc2coc(-c3cccs3)n2)n1C1CC1 | 0% | 27%
CCOc1ccc(S(=O)(=O)Nc2nc3ccccc3nc2Nc2ccc(N(C)C)cc2)cc1 | 64%[activator] | 184%[activator]
CCOc1ccccc1C(=O)NCc1ccc2c(c1)CCN2C(C)=O | 93%[activator] | 86%[activator]
COc1nc(OCC#N)nc(N2CCOCC2)n1 | -7% | -5%
O=C(CCc1ncc(-c2ccccc2F)o1)Nc1ccccc1N1CCOCC1 | 11% | 7%
CC(C)CCNC(=O)c1ccc(Cn2c(=O)c3cccn3c3cccnc32)cc1 | -8% | -3%
Cc1cc(C)cc(NC(=O)COC(=O)Cn2cnc3c2c(=O)n(C)c(=O)n3C)c1 | -7% | -8%
Cc1c(-c2nsc(NC(=O)c3cccc(F)c3)n2)nnn1-c1ccccc1C(F)(F)F | 31%[activator] | ?
Cc1ccc(NC(=O)CC2Nc3ccccc3NC2=O)cc1C (stereo not given) | 100%[activator] | 69%[activator]
Cc1ccc(S(=O)(=O)N(CCc2ccccc2)CC(=O)Nc2ccccc2C)cc1 | 0% | 220%[activator]
Cc1ccc(-n2nc(C)c3c(C(=O)Nc4ccc(Br)c(C)c4)cc(C)nc32)cc1 | -16% | -14%
Cc1sc(NC(=O)CC(C)C)c(C#N)c1C | 0% | 23%
O=C(Nc1sc2c(c1C(=O)NCc1ccco1)CCCC2)c1cc(=O)c2cc(Cl)ccc2o1 | -18% | -12%
CCCS(=O)(=O)c1nc(S(=O)(=O)c2ccc(C)cc2)c(N(C)Cc2ccccc2)s1 | -22% | 134%[activator]
CC(C)CNC(=O)C1CCN(C(=O)C(C)(C)C)CC1 | -9% | -1%
CSc1nc(C(C)C)nc(C)c1C(=O)Nc1ccc(Cl)cc1C | 48%[activator] | 43%[activator]
Cc1c(C(=O)c2ccc(Cl)cc2)oc2cc(NC(=O)c3ccncc3)ccc12 | 3% | 6%
Cc1nc2n(c(=O)c1C)CN(CCN1CCOCC1)CN2c1ccc(Oc2ccccc2)cc1 | 6% | ?
N#Cc1ccccc1COC(=O)c1cc2ccccc2[nH]1 | 13% | 10%
O=C(NCc1ccccc1Cl)c1ccc2c(c1)N(Cc1ccccc1)C(=O)c1ccccc1S2 | -21% | -2%
COc1ccc(NC(=O)C(C)SCCO)cc1Cl (stereo not given) | 0% | 8%
CCOc1ccc(NC(=O)COc2ncnc3ccc(Br)cc23)cc1 | 6% | 3%
Cc1ccc(/C=C/C(=O)N2CCC(c3nc4ccccc4o3)CC2)cc1 | 0%&90% | 7%&-16%
CCCN(CCC)CCNC(=O)c1ccc(CN2CC(=O)N3CCCCC3C2=O)cc1 (stereo not given) | -4% | -8%
O=Cc1ccc(O)c(O)c1O | -22% | -15%
Cc1ccc(CNC(=O)C2(CC(=O)NC(C)(C)C)CCCC2)cc1 | 1% | 9%
CSc1ccc(CCNC(=O)c2ccc3c(c2)nc2n3CCC(C)C2)cc1 (stereo not given) | 4% | -9%
O=C(CCc1cccs1)NCc1ccco1 | 19% | -3%
O=C(CCS(=O)(=O)C1CCCC1)NCC1CN(Cc2ccccc2)CCO1 (stereo not given) | 0% | -10%
N#Cc1nc(-c2cccs2)oc1N1CCN(C(=O)c2ccccc2Cl)CC1 | -18% | -2%
Cc1ccc(NC(=O)c2ccc(NC(=O)N3CCSc4ncccc43)cc2)c(C)c1 | 86%[activator] | -5%
O=C(CSc1ncc(CO)n1Cc1ccccc1)Nc1ccc(C(F)(F)F)cc1 | ? | -27%
O=C(CSc1nc(-c2ccccc2)[nH]c1-c1ccc(F)cc1)NC1CCCC1 | -10% | 45%[activator]
COc1ccc(NC(=O)Cn2c(=O)n(Cc3ccco3)c(=O)c3cc(OC)c(OC)cc32)cc1 | 0% | 11%
COC(=O)c1ccccc1NC(=O)c1cnc(Nc2ccc(OC)cc2)c2ccccc12 | 55%[activator] | 63%[activator]
COCCCNc1nc2cc(OC)c(OC)cc2c2nc(-c3ccccc3)nn12 | -7% | -9%

Next results.
molecule | 2A firefly | StopGo RLuc
Cc1cc(C)c2oc(C(=O)Nc3nc4ccc(Cl)cc4s3)cc(=O)c2c1 | -4% | 1%
O=C(Nc1ccc2oc(-c3ccccc3Br)nc2c1)c1cccc([N+](=O)[O-])c1 | 107%[activator] | 0%
Cc1ccc(OCC(=O)Nc2cccc(C(=O)OCc3cc(=O)n4c(C)csc4n3)c2)cc1 | 0% | 15%
CC(=O)N1c2ccc(S(=O)(=O)NCC3CCC(C(=O)Nc4cccc(C)c4C)CC3)cc2CC1C (stereo not given) | -20% | -4%
COc1ccc(CN(C(=O)c2nn(C)c(=O)c3ccccc23)C2CCS(=O)(=O)C2)cc1 (stereo not given) | 0% | 2%
CC(=O)c1cccc(NC(=O)c2cccc(S(=O)(=O)N3CCOCC3)c2)c1 | 10% | 68%[activator]
O=c1c(=O)n(-c2ccc(F)c(F)c2)ccn1Cc1c(F)cccc1Cl | -4% | -10%
CC(C(=O)N1CCCCC1)N(C)CC(=O)Nc1ccc(Cl)c(C(F)(F)F)c1 (stereo not given) | ? | ?
CCC(CC)C(=O)OCc1cc(=O)n2nc(C3CC3)sc2n1 | 19% | 1%
CCCn1nc(C(=O)NCCCN(C)Cc2ccccc2)c2ccccc2c1=O | -22% | -20%
O=C(OCC(=O)c1c[nH]c2ccccc12)c1ccc(O)cc1 | 94%[activator] | 0%
Cc1ccc(S(=O)(=O)NCCc2csc3nc(-c4ccccc4F)nn23)cc1C | -1% | -7%
CCOc1ccccc1NC(=O)CC1C(=O)Nc2ccccc2N1C(=O)c1ccccc1OC (stereo not given) | 1% | 141%[activator]
CC(C)N(CCNC(=O)c1nn(C)c(=O)c2ccccc12)C(C)C | -1% | -6%
CC(OC(=O)c1cc(=O)[nH]c2ccccc12)C(=O)Nc1ccc(C(N)=O)cc1 (stereo not given) | 17% | 2%
CCCCCCCCCCCC(=O)N/N=C\CC(C)C | 15% | 4%

Rewritten with two lines to a compound: part of the list above
Every second line gives: 2A firefly, StopGo RLuc
> Cc1nc2ccn(Cc3cccs3)c(=O)c2cc1C(=O)N1CCN(c2ccccc2F)CC1
 : -17%, -5%
> CSc1ccccc1NC(=O)C(c1ccccc1)c1ccccc1
 : -2%, 11%

The listing continues:
molecule | 2A firefly | StopGo RLuc
Cn1cc(C(=O)NCCNC(=O)Cc2ccccc2)c2ccccc21 | -3% | -6%
COc1ccccc1CN1CCC(CNC(=O)c2cnn(-c3ccccc3Cl)c2C2CCN(C(=O)OC(C)(C)C)CC2)CC1 | -23% | 2%
CC(C)CN(CC(=O)NC(=O)NC(C)C)C1CC1 | 23% | 19%
COc1cccc(CNC(=O)CN2C(=O)N(c3cccc(C)c3)S(=O)(=O)c3ccccc32)c1OC | 3% | 7%
COc1cccc(-n2c(=O)c3c4c(sc3n(Cc3ccccc3C#N)c2=O)CCCC4)c1 | -7% | -12%
Cc1cccc(C)c1NC(=O)CSc1ncc(-c2ccc(F)cc2)o1 | 20% | 0%
Cc1ccc(-c2cc(C(=O)NCc3ccccn3)c3ccccc3n2)cc1C | 179%[activator] | 34%[activator]
Cc1ncc([N+](=O)[O-])n1C | 4%[11.5 µM] | 0%
CCCn1cc(S(=O)(=O)c2cc(C)ccc2C)c(=O)c2cc(F)c(N3CCCCCC3)cc21 | 11% | 187%[activator]
O=C(CSc1nc(=O)[nH]c2c1CCCC2)NCc1ccccc1 | -19% | -12%
Cc1oc(-c2ccccc2)nc1C(=O)OCC(=O)NC(N)=O | 8% | -4%
CC(C)(C)CC(C)(C)c1ccc(O)c(Cc2ccc(Cl)cc2Cl)c1 | 13%[11.5 µM] | 9%
CCCCn1nc(C(=O)Nc2nc3c(s2)CCCCC3)c2ccccc2c1=O | 0% | -1%
CCC(=O)N(C)C(c1ccccc1)c1c[nH]c2ccccc12 (stereo not given) | 26% | 45%[activator]
Cc1cccc(C)c1Nc1c(-c2ccc(N3CCOCC3)cc2)nc2ncccn12 | 11% | 3%
COc1ccc(Oc2c(C)oc3cc(OCC(=O)c4ccccc4)ccc3c2=O)cc1 | 2% | 10%

Part of the list above in order of SMILES length, descending.
molecule | 2A firefly | StopGo RLuc
CCCn1cc(S(=O)(=O)c2cc(C)ccc2C)c(=O)c2cc(F)c(N3CCCCCC3)cc21 | 11% | 187%[activator]
CC(C)(C)CC(C)(C)c1ccc(O)c(Cc2ccc(Cl)cc2Cl)c1 | 13%[11.5 µM] | 9%
O=C(CSc1nc(=O)[nH]c2c1CCCC2)NCc1ccccc1 | -19% | -12%

Going on with the list.
molecule | 2A firefly | StopGo RLuc
CCOC(=O)C1CCCN(C(=O)c2ccc(C)c(NC(=O)c3nsc4ccccc34)c2)C1 (stereo not given) | -11% | -18%
Cc1ccc(Cl)cc1-n1ncc2c(NCC3CCCO3)ncnc21 (stereo not given) | -29% | ?
Cc1ccc(S(=O)(=O)Oc2ccc3c(c2)O/C(=C\c2cccc(C)c2)C3=O)cc1 | 5% | -5%
Cc1[nH]c2ccccc2c1C(=O)C(C)OC(=O)c1ccc2c(c1)NC(=O)CS2 (stereo not given) | 35µM* | ?
N#Cc1nc(-c2ccc([N+](=O)[O-])cc2)oc1N1CCN(CCO)CC1 | 17% | 7%
Cc1cc(NC(=O)c2ccc(-c3ccc(Cl)cc3)o2)cc(-c2nc3ncccc3o2)c1O | -5% | -4%
Fc1ccc(-c2noc3ncnc(NCc4ccc(Cl)cc4)c23)cc1 | -10% | -9%
C1=C(CCNCc2ccccn2)CCCC1 | 27% | 16%
Cc1ccccc1NC(=O)CSc1nc(-c2ccco2)nc2cc(=O)[nH]n12 | -19% | -22%
CCNc1nc(NCC)nc(Oc2ccc(C(=O)OCC)cc2)n1 | 7% | 7%
N#Cc1ccc(S(=O)(=O)Nc2c(NCC3CCCCC3)c3ccccc3oc2=O)cc1 | -18% | -2%
COc1ccc(Cn2c(=O)c3oc4ccccc4c3n(Cc3cccc(C)c3)c2=O)cc1 | 1% | ?
Nc1nc(SCc2noc(-c3ccccc3)n2)n[nH]1 | 0% | 6%
O=C(c1cc(-c2ccc(Cl)cc2)on1)N(Cc1cccc(F)c1)Cc1ccco1 | 20% | 48%[activator]
O=C(CC1NCCNC1=O)Nc1cccc(F)c1 (stereo not given) | 17% | -1%
COc1ccccc1Nc1c2c(nc3ccc(NC(=O)c4cccc(F)c4)cc13)CCCC2 | ? | ?
Cc1ccc2nc(NCc3ccc(F)cc3)c(-n3nc(C)cc3C)nc2c1 | 5% | -5%
COc1ccccc1Oc1coc2cc(OCc3ccccc3C)ccc2c1=O | 0% | -4%
O=C(O)/C(=C/C=C\c1ccccc1)NC(=O)c1ccc(Br)o1 | 10% | 5%
Cn1c(=O)c2c(nc(Nc3cc(Cl)ccc3Cl)n2CC(=O)O)n(C)c1=O | -8% | 3%
Cc1cccc(NC(=O)c2c(NC(=O)c3ccco3)sc3c2CCC(C)C3)c1 (stereo not given) | -2% | -10%
O=C1c2ccc(-c3nc4ccccc4o3)cc2C(=O)N1Cc1cccnc1 | -1% | -4%
COc1ccccc1C(=O)Nc1c(C(=O)Nc2ccccc2F)oc2ccccc12 | 10% | -5%
CC1=C(C(=O)N2CCOCC2)C(c2ccc(F)cc2F)NC(=O)N1Cc1ccccc1 (stereo not given) | -15% | -18%
O=C(/C=C/c1ccccc1)c1ccccc1-n1cccn1 | ? | ?
CCOc1ccccc1NC(=O)C1CCN(S(=O)(=O)c2ccc(Br)cc2)CC1 | -17% | -5%
